KCNQ2 pot = enhances the rat KCNQ2 potassium channel. O88943. CHO-K1 KCNQ2, FluxOR thallium flux fluorescence; active compounds read high. B-score at 10 µM. hit rate 0.54% among 310,000. AID 2239;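 active = fluorescence ratio B-score at least 3 SD of library B-scores, with initial fluorescence B-score within 3 SD, cut at about 5.3 in these data; same plate scores as AID 2156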;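 note: B-score of peak minus minimum over baseline fluorescence ratio after K+ and Tl+ stimulus; positive B-score means potentiation of KCNQ2 with more thallium influx and brighter signal; only the inactives scoring about 0 or higher are listed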
Target sequence (O88943 whole entry, looked up): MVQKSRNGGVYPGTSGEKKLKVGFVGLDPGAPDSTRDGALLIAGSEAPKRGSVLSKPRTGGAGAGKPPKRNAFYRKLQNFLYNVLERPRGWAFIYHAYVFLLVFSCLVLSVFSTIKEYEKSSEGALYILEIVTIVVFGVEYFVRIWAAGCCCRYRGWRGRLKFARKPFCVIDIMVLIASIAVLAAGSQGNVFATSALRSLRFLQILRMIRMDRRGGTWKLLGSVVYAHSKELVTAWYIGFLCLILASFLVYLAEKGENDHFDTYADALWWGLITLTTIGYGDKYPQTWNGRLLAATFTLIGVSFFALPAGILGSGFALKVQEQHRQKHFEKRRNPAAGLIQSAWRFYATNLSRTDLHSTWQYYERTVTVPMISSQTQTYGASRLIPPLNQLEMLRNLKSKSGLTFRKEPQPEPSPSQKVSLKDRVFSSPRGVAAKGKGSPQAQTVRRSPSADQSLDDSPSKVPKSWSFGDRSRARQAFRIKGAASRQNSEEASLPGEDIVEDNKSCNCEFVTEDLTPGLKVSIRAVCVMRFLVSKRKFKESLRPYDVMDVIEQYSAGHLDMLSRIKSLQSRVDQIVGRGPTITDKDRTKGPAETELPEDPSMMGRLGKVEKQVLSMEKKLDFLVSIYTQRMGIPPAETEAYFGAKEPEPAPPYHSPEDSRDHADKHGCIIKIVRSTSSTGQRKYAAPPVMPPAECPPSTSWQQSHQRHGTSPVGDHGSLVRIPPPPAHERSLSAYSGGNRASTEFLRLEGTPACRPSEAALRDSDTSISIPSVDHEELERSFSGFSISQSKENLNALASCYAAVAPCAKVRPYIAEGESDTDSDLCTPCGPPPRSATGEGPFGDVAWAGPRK
KCNQ2 pot baseline = second read-out of KCNQ2 pot, no call of its own (marks repeat the call); B-score; compound at 10 µM; measured here: initial fluorescence intensity artifact check;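 brightness before thallium and not channel activity; 0 = typical well and far values either way flag optical interference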
Active calls of the source: *. Not all compounds are listed; the hit share may differ from the screen's.

SMILES | KCNQ2 pot | KCNQ2 pot baseline
CS(=O)(=O)N(Cc1ccccc1Cl)c1ccc(C(=O)NCc2cccnc2)cc1 | 0.59 | 0.32
COC(=O)/C(=C/c1ccco1)NC(=O)c1ccco1 | 0.44 | 0.68
S=c1[nH]cc(Cc2ccccc2)s1 | 4.2 | -0.06
CC(=O)Nc1c2c(nn1-c1ccc(C)cc1)CS(=O)(=O)C2 | 0.96 | -0.02
NCCc1nnc(SCc2ccc(F)cc2)o1 | 0.24 | 0.95
COc1ccc([N+](=O)[O-])cc1NC(=O)CSCc1cc(C)cc(C)c1 | 3.7 | 0.43
Cc1ccc(CNC(=O)COc2ccc(S(=O)(=O)N3CCOCC3)cc2)cc1 | 0.31 | -0.11
C[n+]1cc(-c2ccccc2)oc1-c1ccccc1 | 1.7 | -0.02
O=c1c(Cl)c(N2CCOCC2)cnn1-c1ncc(C(F)(F)F)cc1Cl | 1.1 | -0.09
O=C1c2cccc3cccc(c23)C(=O)N1CC1CCCO1 (configuration not stated) | 1.1 | -0.92
CCN(CC)C(=O)C1CCCN(Cc2ccc3c(c2)OCO3)C1 (configuration not stated) | 0.36 | 0.58
CCc1nnc(NC(=O)CCN2C(=O)c3ccccc3S2(=O)=O)s1 | 1.5 | -1.2
CCc1ccc(C(=O)N/N=C/c2ccncc2)s1 | 1.2 | -0.12
CCCCNC(=O)NC1CCCC1 | 0.62 | -1.3
Cc1cc(NC(=O)Cc2cn3ccsc3n2)n(-c2ccccc2)n1 | 0.72 | -0.08
CN1CCC(N(C)C(=O)COc2ccccc2-c2ccccc2)CC1 | 0.06 | 0.46
CC1(C)Cc2c(sc(NC(=O)C(=O)NCC3CCCO3)c2C(=O)O)CO1 (configuration not stated) | 0.59 | 0.84
CCCN1Cc2cccc(C(=O)N3CCN(c4ccc(OC)cc4)CC3)c2C1=O | 0.18 | -0.15
CCOC(=O)NC(=O)CSc1cc(C)c2cc(C)cc(C)c2n1 | 2.3 | 0.71
Cc1cc(C)c2[nH]c(O)c(N=NC3=NC(=O)CS3)c2c1 | 0.94 | -0.59

Ordered by the number under KCNQ2 pot baseline (largest number first): three from the list above
SMILES | KCNQ2 pot | KCNQ2 pot baseline
CCN(CC)C(=O)C1CCCN(Cc2ccc3c(c2)OCO3)C1 (configuration not stated) | 0.36 | 0.58
CN1CCC(N(C)C(=O)COc2ccccc2-c2ccccc2)CC1 | 0.06 | 0.46
Cc1cc(C)c2[nH]c(O)c(N=NC3=NC(=O)CS3)c2c1 | 0.94 | -0.59

One compound at a time (already shown):
CCOC(=O)NC(=O)CSc1cc(C)c2cc(C)cc(C)c2n1 reads KCNQ2 pot: 2.3; KCNQ2 pot baseline: 0.71
CCCCNC(=O)NC1CCCC1 reads KCNQ2 pot: 0.62; KCNQ2 pot baseline: -1.3
CCc1nnc(NC(=O)CCN2C(=O)c3ccccc3S2(=O)=O)s1 reads KCNQ2 pot: 1.5; KCNQ2 pot baseline: -1.2

Next section
SMILES | KCNQ2 pot | KCNQ2 pot baseline
CC(C(=O)C12CC3CC(CC(C3)C1)C2)N1CCOCC1 (configuration not stated) | 0.5 | 0.01
O=C1OCC(CO)(CO)N=C1NNc1ccccc1[N+](=O)[O-] | 0.16 | -0.25
CN(C)c1nc(N)nc(CSc2nnnn2-c2cccc3ccccc23)n1 | 0.09 | 0.76
CC(=O)Nc1ccc(NC2CCCCC2NS(=O)(=O)c2ccccc2)cc1 (configuration not stated) | 0.37 | -1.2
O=C(CSc1nc2ccccc2n1CC(=O)N1CCCCC1)N1CCCCC1 | 1.5 | 1.6
COc1cc2c(cc1OC)C(C)N(C(=O)c1cccc([N+](=O)[O-])c1)CC2 (configuration not stated) | 0.77 | 1.9
CC(C)CNC(=O)/C(C#N)=C1\N=C(NC(=O)c2ccco2)c2ccccc21 | 0.15 | 0.11
CC(=O)N=c1c(C#N)cc2c(=O)n3ccccc3nc2n1CCCOC(C)C | 0.38 | 2.8
COc1ccc(CCNC(=O)CN(CCc2ccccc2)S(C)(=O)=O)cc1OC | 0.05 | 0.68
Cc1cc(N2CCCC2=O)ccc1S(=O)(=O)NC1CCCCC1 | 0.7 | -0.99
CC(=O)c1ccc(NC(=O)CCC(=O)OCC(F)(F)C(F)F)cc1 | 0.06 | -2
COc1ccc(CC(=O)Nc2nc(-c3ccc(OC)c(OC)c3)cs2)cc1OC | 1.6 | -0.25
O=c1cc(-c2ccc(F)cc2)[nH][nH]1 | 0.81 | -1
O=C(Nc1nc(-c2cccs2)cs1)c1ccco1 | 0.9 | 1
CCC(C(=O)OCC(=O)NC1CCS(=O)(=O)C1)c1ccccc1 (configuration not stated) | 0.59 | -0.12
COc1ccc(-c2noc(CN(C(=O)c3cccs3)C(C)C)n2)cc1 | 0.07 | 1.8
NC(=O)CSc1nc2c(c(=O)n1-c1ccccc1)C1(CCCCC1)Cc1ccccc1-2 | 0.74 | -0.39
Cc1cc(S(=O)(=O)Nc2ccc(C(=O)N3CC(C)OC(C)C3)cc2)ccc1F (configuration not stated) | 1 | -0.16
O=C(CN1CCCCC1)NC(=O)NC1CCCC1 | 0.02 | 0.61
Cc1ccc(SCCC(=O)N/N=C/c2cccnc2)cc1 | 0.06 | 0.13
COc1ccc(Cl)cc1S(=O)(=O)N1CCC(C(=O)N2CCOCC2)CC1 | 1 | 0.08
N/C(=N\c1nc2ccccc2o1)NC(=O)c1ccc(Cl)cc1 | 0.94 | 1.3
CCN(CC)CCNC(=O)c1cc2cc3ccc(OC)cc3nc2o1 | 1.9 | 0.91
CCc1ccccc1N(CC(=O)NC1CCCCC1)C(=O)CNC(=O)c1ccco1 | 0.06 | -0.8
COc1ccc(/C=C\C(=O)c2c(O)ccc3c(C)cc(=O)oc23)cc1 | 1.2 | -0.93
Cc1ccccc1Cn1nc(C)c(NC(=O)C2c3ccccc3Oc3ccccc32)c1C | 1.5 | 0.59
CCOc1cc(S(=O)(=O)n2nc(C)cc2C)ccc1Br | 1.2 | -0.56
CC1(C)S[C@@H]2C(C(=O)OCc3ccccc3)NC(=O)N2C1C(=O)OCc1ccccc1 (some centres not stated) | 0.99 | -0.35
CCN(CC)c1ccc(Nc2nc(-c3cccnc3)cs2)cc1 | 0.34 | 0.01
Cc1ccccc1NC(=O)CC1S/C(=N/c2nccs2)N(C)C1=O (configuration not stated) | 1.4 | -0.09
Cc1sc(C(=O)Nc2ccc3ccccc3c2)cc1CC(=O)O | 1.2 | 0.29
CN1CCN(CCC(=O)Nc2ccc(C3CCCC3)cc2)CC1 | 0.13 | -1.4
CC(C)CNC(=O)COC(=O)CCC(=O)c1ccc(Cl)cc1 | 1.6 | -0.58
CC(C)=CC(=O)Nc1ccc(S(=O)(=O)Nc2ccccn2)cc1 | 0.23 | 0.44
Cc1ccc(-n2nnnc2CS(=O)(=O)c2ccccc2)c(C)c1 | 0.08 | 1.6
Cc1nc2cc(NC(=O)Nc3cccc4ccccc34)ccc2n1C | 0.86 | -0.05
Cc1cc(S(=O)(=O)NCCN(C)C)c(C)s1 | 0.03 | -0.43
Cc1ccc(S(=O)(=O)Nc2ccccc2CNC2CCCCC2)cc1 | 2 | -0.06
Cc1ccc(-c2c[nH]c(=S)n2-c2ccccc2F)cc1 | 0.1 | 0.32
COc1ccc(Nc2nc(Cl)nc(NCCO)n2)cc1 | 0.06 | 0.02
OCCn1c(CSc2nnc(-c3ccco3)n2-c2ccccc2)nc2ccc(Cl)cc21 | 0.03 | 0.53
Cc1cccc(NC(=O)Cn2cnc3ccccc3c2=O)c1C | 1.5 | -0.3
CCN(c1ccc(OC)cc1)S(=O)(=O)c1nnc(NC(=O)c2ccco2)s1 | 0.41 | -0.72
CC(C)(Oc1ccc(Cl)cc1)C(=O)NCCCn1ccnc1 | 2.8 | -0.94
CCCCc1nc(SCC(=O)Nc2nnc(C(C)C)s2)n[nH]1 | 0.11 | 1
S=C(NCc1cccnc1)Nc1ccc(Cl)cc1 | 0.97 | -1.2
C=C(C)CNC(=S)Nc1sc2c(c1C(=O)OCC)CC(C)(C)OC2 | 2.1 | 0.7
CC1CC(C)CN(CC(=O)c2cccs2)C1 (configuration not stated) | 0.24 | 0.36
C#CCOCCOCCOCCNc1nc(N2CCN(C(=O)[C@H]([C@@H](C)CC)n3cc([C@@H](N)CC(C)C)nn3)CC2)nc(N2CCN(C(=O)[C@H](Cc3cc4ccccc4[nH]3)n3cc([C@@H](N)C(C)CC)nn3)CC2)n1 (some centres not stated) | 0.09 | 0.13
Cc1cc(=O)[nH]c(SCc2ccc(Cl)cc2)n1 | 0.44 | -0.99
Cc1ccc(-c2cc(C(=O)Nc3sc4c(c3C(=O)NCc3ccco3)CCC4)[nH]n2)c(O)c1 | 0.05 | -0.57
Cc1nc(-c2ccc(S(=O)(=O)NCc3cccnc3)s2)cs1 | 2 | -0.11
COc1ccc(C)c(-n2c(=O)n(Cc3ccccc3)c(=O)c3[nH]cnc32)c1 | 0.48 | -1.9
O=C(N/N=C/C=C/c1ccco1)c1cnccn1 | 0.59 | 0.53
O=C(COc1ccc(S(=O)(=O)N2CCCC2)cc1Cl)Nc1ccc2c(c1)OCO2 | 0.51 | 0.4
O=C1CNC(=O)/C(=C/c2ccco2)N1 | 0.07 | -0.91
CCOc1ccc(/C=C/c2[nH]c(=O)[nH]c(=O)c2[N+](=O)[O-])cc1 | 1.2 | -0.29
CCOc1cc(N2CCOCC2)c(OCC)cc1NC(=O)COc1ccccc1[N+](=O)[O-] | 0.66 | -1.4
Cc1cc2n(n1)SC(Nc1ccc(F)c(Cl)c1)N2 (configuration not stated) | 1.6 | -1.5
O=C(Nc1ccccn1)[C@@H]1CCC(=O)N1C(=O)OCc1ccccc1 | 2.2 | 1.9

In a second layout: entries from further up
| Structure | KCNQ2 pot | KCNQ2 pot baseline |
| --- | --- | --- |
| Cc1cccc(NC(=O)Cn2cnc3ccccc3c2=O)c1C | 1.5 | -0.3 |
| Cc1ccc(-c2cc(C(=O)Nc3sc4c(c3C(=O)NCc3ccco3)CCC4)[nH]n2)c(O)c1 | 0.05 | -0.57 |

(cont.)
SMILES | KCNQ2 pot | KCNQ2 pot baseline
CCCCOc1ccc(C(=O)N/C(=C/C=C/c2ccccc2)C(=O)NCCO)cc1 | 0.7 | 0.17
O=C(Nc1ccc(OCc2ccccc2)cc1)c1cccnc1 | 0.6 | -0.08
Cc1ccc(C(=O)Oc2ccc([N+](=O)[O-])cc2)cc1S(=O)(=O)N1CCCCCC1 | 0.17 | -2.6
Cn1nc(C(F)(F)F)c(-c2ccc(F)cc2)c1NC(=O)c1ccco1 | 0.11 | -1.2
COc1cc(NS(=O)(=O)c2ccc(OC)c(OC)c2)cc(OC)c1 | 0.03 | -0.17
[O-][n+]1onc2c1CCc1[nH]c(-c3ccccc3)nc1-2 | 0.2 | 0.43
CC(C)(C)C(=O)NC1CC2CCCC(C1)N2C(=O)Nc1ccccc1F (configuration not stated) | 0.07 | 1.3
CN(C)c1ccc(C(CNS(=O)(=O)c2ccc(F)cc2)c2c[nH]c3ccccc23)cc1 (configuration not stated) | 0.71 | -1.6
O=C(NCc1nnc(SCC(=O)N2CCCc3ccccc32)o1)c1ccccc1F | 0.21 | -1.8
Cc1ccc2[nH]c(=O)c3cc(C(=O)N(C)C4CCCCC4)sc3c2c1 | 0.33 | 0.14
CC(C)Cn1cc(C(=O)NCCCN2CCC(C)CC2)c2c3ccccc3n(C)c2c1=O | 0.14 | 0.85
COC(=O)c1cc(NC(=O)Cn2c(=O)cnc3ccccc32)cc(C(=O)OC)c1 | 0.96 | 1.2
COc1ccccc1CC(=O)Nc1ccc(F)cc1F | 0.34 | 1.2
Cc1ccc(NC(=O)c2cccnc2C(=O)O)nc1 | 1.4 | 0.01
O=C(Nc1ccc(Cc2ccc(NC(=O)N3CCOCC3)cc2)cc1)N1CCOCC1 | 0.78 | 0.25
C=CCn1c(CSc2ccc(C)cc2)n[nH]c1=S | 1.7 | 0.55
Cc1cccc(C)c1-n1c(C)cc(/C=N\Nc2ccc([N+](=O)[O-])cn2)c1C | 0.01 | 1
COc1ccc(-c2cc(C(=O)O)no2)cc1 | 2 | -0.5
CCCNC(=O)CN(C)C(=O)c1n[nH]c2ccccc12 | 0.7 | 1.3
CC(C)CNS(=O)(=O)c1ccccc1C(=O)N1CCCCC1 | 0.69 | -0.6
O=C(c1cccnc1)N1CCN(c2ccc(Cl)cc2)CC1 | 1 | -1.2
CC(C)NS(=O)(=O)c1ccc(NC(=O)NC2CCCCC2)cc1 | 0.31 | 1.4
COCCn1c(=O)[nH]c2cc(C(=O)N3CCN(c4cccc(C)c4C)CC3)ccc2c1=O | 0.82 | 0.46
CN(C)S(=O)(=O)N1CCN(CC(O)COc2ccc(-c3ccccc3)cc2)CC1 (configuration not stated) | 0.68 | -0.98
CCCN1C(=O)c2cc(C(=O)NC3CCCC3)ccc2C1O (configuration not stated) | 1.8 | -0.88
Cc1cc(=O)[nH]c(Nc2cccc(C(F)(F)F)c2)n1 | 0.91 | 0.82
Brc1ccc(-c2nn3c(-c4ccccn4)nnc3s2)o1 | 1.5 | -0.03
O=C1c2cccnc2C(O)N1Cc1ccccc1 (configuration not stated) | 0.68 | -1.1
Cc1ccc(S(=O)(=O)N2CCCOC2CNC(=O)C(=O)NCc2cccs2)cc1 (configuration not stated) | 0.01 | -0.95
COc1cc(OC)c(OC)cc1CN1CCCC(C(=O)N2CCCC2)C1 (configuration not stated) | 0.04 | 1.2
Cc1cc(C(=O)Nc2cccc([N+](=O)[O-])c2)c(C)o1 | 0.02 | -0.45
COC(=O)C1=C(C)Nc2ncnn2C1c1ccc(C)o1 (configuration not stated) | 1.7 | 0.16
Cc1cc(S(=O)(=O)N2CCOCC2)ccc1OCC(=O)Nc1ccc(F)c(Cl)c1 | 0.05 | -0.34
C/C(=N/NS(=O)(=O)c1ccc(C)cc1C)c1c[nH]c2ccccc12 | 0.64 | -1.6
CCOC(=O)c1ccc(C(=O)NNC(=O)C2C3C=CC(C3)C2C(=O)O)cc1 (configuration not stated) | 1.6 | 0.04

High-throughput results deposited in PubChem BioAssay by Johns Hopkins Ion Channel Center.
